Sa growth inh = blocks Staphylococcus aureus growth | S. aureus RN4220 growth, OD600, 20 h, 42 °C; stronger effect = lower value | relative growth, % (no concentration beside the values) | AID 720641 | 170,000 compounds, 0.53% hits;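 active = growth at 42 °C up to 50% and 20 or more points under that at 30 °C, or under 10% at both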;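 also: 300 nL library stock went into each well; scaled to the means of positive and negative controls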
GIV Gai3 FP = blocks GIV peptide binding to rat Galpha-i3 | percent of control (FP), % (concentration not given with the values) | Galpha-i3/FITC-GIV peptide fluorescence polarization, 90 min; stronger effect = lower value; scaled: aluminum fluoride 0%, vehicle 100% | 210,000 compounds, 0.42% hits | P08753;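 active = replicate mean at 85% of control or lower, very high polarization wells dropped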;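 also: wells of about 15 µL received 100 nL stock; the first replicate is given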
Target sequence (P08753 whole entry, looked up): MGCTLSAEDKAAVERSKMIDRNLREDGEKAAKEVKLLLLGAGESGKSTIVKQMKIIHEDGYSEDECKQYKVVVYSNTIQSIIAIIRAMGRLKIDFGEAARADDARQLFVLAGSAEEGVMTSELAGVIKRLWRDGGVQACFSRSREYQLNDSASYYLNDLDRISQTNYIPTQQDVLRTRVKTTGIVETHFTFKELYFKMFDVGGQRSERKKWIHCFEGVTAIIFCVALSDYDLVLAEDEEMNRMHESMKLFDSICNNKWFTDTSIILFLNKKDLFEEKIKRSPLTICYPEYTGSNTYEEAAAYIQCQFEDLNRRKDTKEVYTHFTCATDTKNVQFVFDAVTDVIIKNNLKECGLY
HCMV NEC inh = cytomegalovirus nuclear egress complex inhibition; HTRF UL50-UL53 interaction, normalized percent inhibition; inhibition, % (test concentration not listed); AID 1918969; 190,000 compounds, 0.15% hits;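 active = both replicates at 50% or more, plus weaker picks with an unusually low signal ratio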;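 also: stock transfer was 100 nL into about 20 µL; 0% = negative control wells and 100% = wells with untagged competitor protein; inactives centre near -12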
Sa growth inh second temp = further read-out of Sa growth inh, marked with its call; relative growth, %; measured here: growth at 30 °C;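 optical density after 20 h as mean of two plates; 100% = untreated growth and lower means inhibition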
* marks the source's active call; other numbers are inactive results; nt = no result given; & = joins results of further samples.

SMILES	Sa growth inh	Sa growth inh second temp	GIV Gai3 FP	HCMV NEC inh
Cc1c(Cl)cccc1NC(=O)C1Sc2nnc(-c3ccccc3)n2NC12CCCCC2 (stereo unspecified)	nt	nt	101	-10
CCOC(=O)N1CCC(NC(=O)c2c(C)nn(-c3ccc(F)cc3)c2-n2cccc2)CC1	99	92	105	-11
O=C(NCC1CCN(c2ccc(S(=O)(=O)N3CCOCC3)cc2)CC1)Nc1cccc(F)c1	105	84	99	-6
Cc1ccc(NC(=O)Cc2coc3c(C)c(C)ccc23)c(C)c1	111	94	106	-8
O=C(Cn1cnc2onc(-c3ccc(F)cc3)c2c1=O)N1CCN(c2ccccc2F)CC1	102	90	104	nt
COc1ccc(N2CCN(CCNC(=O)Cn3ncc4c([nH]c5ccc(C)cc54)c3=O)CC2)cc1	110	94	102	-30
CC(Sc1nc2ccccc2n1C)C(=O)Nc1ccc(N2CCOCC2)cc1 (stereo unspecified)	87	90	nt	-18
COc1cccc(NC(=O)c2ccc(-c3nc(COc4ccc(C)cc4)c(C)o3)cc2)c1	101	84	101	nt
Cc1cc2c(OCC(CNC(C)(C)C)OC(=O)c3ccccc3)cccc2[nH]1 (stereo unspecified)	107	102	106	-35
Cc1cc(C)c(C#N)c(SCC(=O)N(C)C2(C#N)CCCCC2)n1	87	90	nt	-9
COC(=O)CSc1nc2sc3c(c2c(=O)n1-c1ccccc1C)CC(C)(C)OC3	123	101	104	0
Cc1cc2n(n1)CC(C)(C(=O)NCc1ccc(Cl)cc1)N(c1ccc3c(c1)OCCO3)C2=O (stereo unspecified)	nt	nt	99	-8
Cc1cc2c(c(=O)n1CC1CCCO1)C(c1cccs1)C(C#N)=C(N)O2 (stereo unspecified)	109	98	95	nt
CCC(=O)N(c1nnc(SCCCn2c(=O)c3c(ncn3C)n(C)c2=O)s1)C1CC1	73	85	nt	0
CCOc1ccc(-n2cc(-c3ccccc3)c3c(N4CCN(c5ccccc5OC)CC4)ncnc32)cc1	119	83	104	nt
NC1=NC(=O)/C(=C/c2ccc(O)c(Br)c2)S1	78	92	nt	-46
O=C1N(Cc2ccccc2)c2ccc(Cl)cc2C1(O)c1c[nH]c2ccccc12 (stereo unspecified)	84	84	110	-26
Cc1ccc(C2CCN(C(=O)c3cnn(-c4cccc(Cl)c4)c3C3CCN(C(=O)OC(C)(C)C)CC3)C2)cc1 (stereo unspecified)	83	64	103	nt
CCN1CCCC1CNCC(O)COCC1CCCO1 (stereo unspecified)	94	90	nt	-5
O=C(COc1ccccc1)Nc1cccc(N2CCn3c(nc4cc(Cl)ccc43)C2)c1	nt	nt	104	-5
CSc1ccccc1NC(=O)C1CC(c2cccc(Br)c2)=NO1 (stereo unspecified)	77	92	101	nt
COc1ccc(NC(=O)c2cc(=O)c3cc(C)cc(C)c3o2)cc1	97	88	103	-31
O=C(NCN1CCC(Cc2ccccc2)CC1)c1nc(-c2ccncc2)no1	95	84	101	-12
Cc1cccc(N2CC(c3nc4ccccc4n3C)CC2=O)c1 (stereo unspecified)	99	84	nt	1
CC(=O)N1CCc2cc(S(=O)(=O)CCC(=O)Nc3ccc(C(F)(F)F)cc3)ccc21	104	84	103	-10
SMILES	Sa growth inh	Sa growth inh second temp	GIV Gai3 FP	HCMV NEC inh
CC(C)CCC1(C)NC(=O)N(CC(=O)c2ccc3c(c2)OCO3)C1=O (stereo unspecified)	121	100	nt	0
CCOc1ncccc1C(=O)N1CCN(S(=O)(=O)c2ccc3c(c2)OCCO3)CC1	95	96	nt	-5
Cc1cc(C(=O)NCCCN2CCOCC2)on1	nt	nt	104	-2
O=C(Oc1ccccn1)C1COc2ccccc2O1 (stereo unspecified)	97	92	nt	2
CNC(=O)CSCc1cc(C)cc(C)c1	115	105	99	-11
CSc1cccc(NC(=S)N(C)C)c1	103	96	105	-5
Cc1ccc2nc(CN)[nH]c2c1	55	95	109	1
O=C(Cc1ccc(F)cc1)NCCc1csc2nc(-c3ccc(Cl)cc3)nn12	102	85	107	nt
CCCCc1ccc(NC(=O)c2ccc3c(c2)CCN3S(=O)(=O)CC)cc1	111	88	99	-15
Cc1ccc(NC(=O)CSCc2cc(=O)c3ccccc3[nH]2)c(C)c1	103	99	99	nt
COC(=O)c1cc(S(=O)(=O)NC(C)(C)C)c(C)n1C	nt	nt	100	-29
CCSc1nnc(-c2ccc(C)cc2)c2ccccc12	nt	nt	104	-30
COc1cc2c(cc1OC)CN(C(=S)Nc1ccccc1)CC2	96	83	104	nt
Cc1c(CCl)cc(C(=O)O)cc1CCl	106	90	nt	-11
CCSc1nnc(NC(=O)CCc2ccc(C)o2)s1	85	88	102	nt
COc1ccc(OC)c(C2CC(c3c(O)n(C)c(=S)n(C)c3=O)=NN2C(C)=O)c1 (stereo unspecified)	nt	nt	107	-4
Cc1cc(C)cc(NC(=O)c2c(O)c3ccccc3[nH]c2=O)c1	nt	nt	104	-6
Fc1ccc(NC(=S)N2CCC3(CC2)OCCO3)c(F)c1	101	97	105	0
CC(=O)NNc1nc(-c2ccccc2)cs1	98	93	nt	-35
CC(CNC(=O)c1ccc2nc(Cc3ccccc3)oc2c1)c1ccccc1 (stereo unspecified)	91	89	102	nt
CC(OC(=O)Cc1ccc(F)cc1)C(=O)Nc1ccc2c(c1)OCCO2 (stereo unspecified)	88	92	nt	-28
CCCCn1cc(S(=O)(=O)c2ccc(C)cc2)c(=O)c2cc(F)c(N3CCCCC3)cc21	76	79	105	nt
COC(=O)c1c(C)oc2ccc(N(C(=O)C3CCCCC3)S(=O)(=O)c3cc(C)c(C)cc3C)cc12	100	92	111	nt
Cc1ncc2c(n1)-c1cc(F)ccc1SC2	96	88	105	-36
COc1ccc2c(Sc3ccccc3)c(C(=O)N3CCc4ccccc43)[nH]c2c1	140	107	107	nt

Structures listed so far containing two or more sulfur atoms:
SMILES	Sa growth inh	Sa growth inh second temp	GIV Gai3 FP	HCMV NEC inh
COC(=O)CSc1nc2sc3c(c2c(=O)n1-c1ccccc1C)CC(C)(C)OC3	123	101	104	0
CCC(=O)N(c1nnc(SCCCn2c(=O)c3c(ncn3C)n(C)c2=O)s1)C1CC1	73	85	nt	0
CSc1cccc(NC(=S)N(C)C)c1	103	96	105	-5
CCSc1nnc(NC(=O)CCc2ccc(C)o2)s1	85	88	102	nt

More entries
SMILES	Sa growth inh	Sa growth inh second temp	GIV Gai3 FP	HCMV NEC inh
CCOc1ccc(N=Cc2c(C(=O)O)[nH]c3ccccc23)cc1	102	87	117	nt
O=C(CCn1nc(-c2ccc(Cl)cc2)c2ccccc2c1=O)NCC1CCCO1 (stereo unspecified)	93	89	104	nt
Cc1cc(C(=O)CSc2nnc(NCc3ccccc3)s2)c(C)n1C	100	93	nt	-8
CSc1nnc(C2CCCN2Cc2cccnc2)n1C (stereo unspecified)	87	80	102	-10
NS(=O)(=O)c1ccc(N=Cc2c(O)n(Cc3ccc4c(c3)OCO4)c(=O)c3ccccc23)cc1	96	92	nt	-3
COc1ccc(CCNc2nc(SCc3ccc(Cl)cc3)nc3ccccc23)cc1OC	96	90	97	nt
Cc1nnc2ccc(N3CCC(c4ccccc4)C3)nn12 (stereo unspecified)	93	83	103	-9
O=S(=O)(c1cccc(-c2nnc3n2CCCCC3)c1)N1CCCCC1	104	95	nt	-35
O=c1ccc(-c2ccco2)n[nH]1	96	87	101	-77
CN(C)c1ccc(CNC(=O)c2ccc3cnn(Cc4cccc(Cl)c4)c3c2)cc1	nt	nt	104	-12
OCCN(CC(O)Cn1ccc2ccccc21)CC(O)Cn1ccc2ccccc21 (stereo unspecified)	106	58	101	-18
CC(C)(C)C(=O)O/N=C(\N)Cc1ccc(-c2csnn2)cc1	98	78	109	2
N#Cc1c(C(F)(F)F)cc(-c2ccco2)nc1SCc1ccncc1	79	104	107	-8
O=C(Nc1ccccc1C(F)(F)F)C1CC2CCCC(C1)C2=O (stereo unspecified)	94	94	nt	-28
Cc1nc(C(F)(F)F)ccc1C(=O)NCc1nc(-c2ccc(C(F)(F)F)cc2)no1	94	87	96	-12
CC(=O)Oc1nc(-c2ccc(C(C)(C)C)cc2)n(-c2ccccc2)n1	129	77	102	-12
COc1cc2c(C#N)c(OC)nc3c2c(n1)NC(C)(c1ccc(Br)cc1)N3 (stereo unspecified)	96	75	nt	-12
CC(C)S(=O)(=O)c1cscc1N/C=C(/C#N)C(=O)c1cccs1	90	85	121	-54
COc1ccc(CCn2cnc3oc(-c4ccccc4)c(-c4ccccc4)c3c2=N)cc1OC	115	78	101	nt
CC(C)(CO)NC(=O)c1ccc(Cl)c(S(=O)(=O)N2CCCCC2)c1	107	79	103	-32
Cc1nc(N2CCc3ccccc32)nc2c1C(=O)CC(c1ccccc1O)C2 (stereo unspecified)	nt	nt	97	-23
N#CSCC(=O)c1ccccc1	71	50	103	-20
CCCS(=O)(=O)c1csc(C(=O)OC)c1NNS(=O)(=O)c1ccccc1C(F)(F)F	88	85	103	-28
COCc1cc(C)nc2snc(Br)c12	86	87	nt	-11
CCN1C(=O)/C(=N\N2C(=O)CSC2=S)c2ccccc21	90	79	nt	-4

Two entries from above, set out differently.
Every second line gives: Sa growth inh	Sa growth inh second temp	GIV Gai3 FP	HCMV NEC inh
O=c1ccc(-c2ccco2)n[nH]1
  96	87	101	-77
CN(C)c1ccc(CNC(=O)c2ccc3cnn(Cc4cccc(Cl)c4)c3c2)cc1
  nt	nt	104	-12

Continuation.
SMILES	Sa growth inh	Sa growth inh second temp	GIV Gai3 FP	HCMV NEC inh
CC1(C)CC(=O)C2=C(C1)c1c(ccc3ccccc13)NC2c1ccc(Br)o1 (stereo unspecified)	105	106	102	-13
Cn1c(=O)c2c(nc(Oc3cccc(/C=N/NC(=O)c4nonc4N)c3)n2C)n(C)c1=O	97	79	104	-20
CCOc1ccc(C(O)(C(C)C)C(CN2CCOCC2)c2ccccc2)cc1 (stereo unspecified)	nt	nt	106	-5
O=C(c1ccccc1)c1coc2ccccc2c1=O	84	68	95	-10
C/C(=N\OCC(=O)Nc1ccc(S(=O)(=O)N2CCOCC2)cc1)c1ccc2c(c1)OCCO2	108	103	nt	-15
Cc1ccc(C)n1-c1ccc(C(=O)OCC(=O)c2cccs2)cc1	94	97	nt	-17
CCS(=O)(=O)N1CCn2c(nc3ccccc32)C1	94	83	105	2
O=C(C1CCCCC1)N(c1ccc(Cl)nn1)C1CCCCC1	106	91	102	-5
Nc1c(-c2nc(-c3ccc4c(c3)OCO4)no2)nnn1-c1cccc(C(F)(F)F)c1	89	84	98	nt
O=C(NCc1ccncc1)c1cc(-c2ccco2)nc2ccccc12	114	90	nt	-36
FC(F)(F)c1cccc(N2CN(CCCN3CCOCC3)CNC2=S)c1	91	83	107	-51
O=C(O)CSCC(=O)Nc1cc(-c2ccccc2)[nH]n1	97	87	95	-24
CCN(CCN(C)C)C(=O)Cn1ncc2c1-c1cc(C)ccc1OC2	99	87	102	8
CCc1ccccc1NC(=O)Nc1cc(OC)cc(OC)c1	93	96	92	-14
COc1ccc(Cl)cc1NC(=O)CCn1nc(C)cc1C	111	89	102	nt
CC(C)CCNC(=O)C1CCCCN1S(=O)(=O)c1ccc(F)cc1 (stereo unspecified)	103	84	106	-6
COC(=O)c1c(NC(=O)CSc2nc(-c3ccco3)cc(C(F)(F)F)n2)sc2c1CCCC2	110	98	101	nt
CCC(C)N1C(=O)/C(=C\c2cnn(-c3ccccc3)c2)C(=O)NC1=S (stereo unspecified)	56	34	115	13
c1cncc(-c2csc(Nc3nc4cc5c(cc4s3)OCO5)n2)c1	102	96	99	-23
Fc1ccc(CSc2nc3ncccc3[nH]2)c(Cl)c1	93	78	106	-5&-23
CC(=O)c1[nH]c(C)c(C(=O)NCCc2ccc(C)cc2)c1C	98	100	104	-3
Cc1ccc(-c2onc(C)c2C)cc1S(=O)(=O)N1CCc2ccccc21	107	106	112	nt
CCc1cccc(NC(=O)CCS(=O)(=O)c2ccc3nc(C)sc3c2)c1	95	88	106	nt
Cc1ccc(CCNC(=O)CCn2nc(-c3ccc(Cl)cc3)ccc2=O)cc1	93	87	99	nt
CCOc1ccc(N2CC(C)Cn3c2nc2c3c(=O)n(C)c(=O)n2C)cc1 (stereo unspecified)	nt	nt	100	-12
CCNC(=O)C1CCN(c2nnc(C)c3c(C)n(-c4ccc(OC)cc4)nc23)CC1	109	92	110	nt
COc1ccc(S(=O)(=O)N(C)CCO)cc1-c1nnc2c3ccccc3c(C)nn12	81	80	104	nt
Cc1nc(-c2ccc(S(=O)(=O)N3CCN(c4cc(Cl)ccc4C)CC3)cc2)co1	96	84	104	nt
Cc1ccc(N2C(=O)c3n[nH]c(C)c3C2c2cccnc2)cc1 (stereo unspecified)	85	88	96	4
O=C(NC1CCCCC1)C(Cc1ccccc1)NS(=O)(=O)c1cccs1 (stereo unspecified)	92	82	105	-6

Entries of single compounds, quoted from the list. Values in the order: Sa growth inh | Sa growth inh second temp | GIV Gai3 FP | HCMV NEC inh
Results for Cn1c(=O)c2c(nc(Oc3cccc(/C=N/NC(=O)c4nonc4N)c3)n2C)n(C)c1=O → 97 | 79 | 104 | -20
Results for Cc1nc(-c2ccc(S(=O)(=O)N3CCN(c4cc(Cl)ccc4C)CC3)cc2)co1 → 96 | 84 | 104 | nt
Results for CCN(CCN(C)C)C(=O)Cn1ncc2c1-c1cc(C)ccc1OC2 → 99 | 87 | 102 | 8
Results for CCc1cccc(NC(=O)CCS(=O)(=O)c2ccc3nc(C)sc3c2)c1 → 95 | 88 | 106 | nt

Screens: PubChem, ICCB-Longwood Screening Facility, Harvard Medical School

The order is random, and some 0.79% of all compounds hit somewhere here.
